Cruzain inh Det – qHTS Assay for Promiscuous and Specific Inhibitors of Cruzain (with detergent). purified cruzain, Z-FR-AMC fluorescence, 0.01% Triton. 0.43% of 200,000 active. Potency, µM, without a hit: max response, negative = inhibition, most hits filed as inhibitors. Cruzipain (Trypanosoma cruzi), P25779; active = well fitted curve in the direction sought with a large enough effect; inconclusive = small, poorly fitted or top-dose-only effect, or another doubt; inactive = no such curve, though single readings can be large; an effect the other way counts as inactive or inconclusive;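 note: plate controls were neutral wells for no effect and buffer without enzyme for full effect; nearly all actives have a fitted effect of over 40% in size; top concentration of the series not given in the record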
Target sequence (P25779 123-467 limits assumed): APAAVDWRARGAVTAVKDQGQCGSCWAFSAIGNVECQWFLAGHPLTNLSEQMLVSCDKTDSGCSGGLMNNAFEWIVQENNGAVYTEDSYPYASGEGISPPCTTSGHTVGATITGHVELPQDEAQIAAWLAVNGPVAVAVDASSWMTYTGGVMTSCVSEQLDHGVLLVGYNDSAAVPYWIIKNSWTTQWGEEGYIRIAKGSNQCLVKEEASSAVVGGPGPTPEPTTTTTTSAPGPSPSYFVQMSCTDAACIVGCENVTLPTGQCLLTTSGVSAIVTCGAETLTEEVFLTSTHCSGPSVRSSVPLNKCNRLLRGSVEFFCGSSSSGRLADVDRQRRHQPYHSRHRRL
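Z-FR-AMC hydrolysis (2 uM substrate) by cruzain (1.5 nM) monitored kinetically at ex 360/em 450 nm after 15 min room-temperature compound exposure; 0.01% Triton X-100, pH 5.5, 5 mM DTT.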
RE007 growth inh – qHTS Assay for Inhibitors of the HIV-1 protein Vpr | S. pombe RE007 Vpr strain, BacTiter-Glo ATP luminescence, 24 h; control for the full effect not named in the record | Potency, µM (highest dose often 92.2 µM), for the others: top-dose activity change, negative = less growth | 0.21% of 360,000 active | AID 651644, 2012; active = well fitted falling curve with a large enough effect; inconclusive = small, poorly fitted or top-dose-only effect; inactive = no such curve, though single readings can be large or run the other way;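 note: % is set by controls: 0 for no effect and ±100 for the full control effect; nearly all actives have a fitted effect of over 50% in size; the assay follows cell death caused by Vpr and the record does not say whether a fall means rescue or toxicity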
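Fission yeast RE007 carrying one integrated HIV-1 vpr copy, seeded at OD 0.01 in PMG+AL medium with 23 nL pinned compound. Grown 24 h at 30 degrees; viability read by BacTiter-Glo luminescence after 5 min.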
Lassa entry inh – qHTS for Inhibitors of binding or entry into cells for Lassa Virus; 1.2% of 300,000 active; AID 540256, 2011; Lassa virus pseudotype entry inhibition, cell reporter; control for the full effect not named in the record; Potency, µM (series often up to 37.9 µM), for inactives: at the highest dose activity change, negative = inhibition, most hits filed as inhibitors; active means well fitted inhibition curve with a large enough effect; inconclusive means small, poorly fitted or top-dose-only effect, or effect the other way; inactive means flat fitted curve, though single readings scatter; tested in HEK293 cells; note: % is set by controls: 0 for no effect and ±100 for the full control effect; nearly all actives have a fitted effect of over 50% in size; luciferase read-out
Cruzain inh noDet – qHTS Assay for Promiscuous and Specific Inhibitors of Cruzain (without detergent); Cruzipain (Trypanosoma cruzi), P25779; purified cruzain, Z-FR-AMC fluorescence, no detergent; Potency, µM, for the others: max response, negative = inhibition, hits mostly inhibitors; 2.3% of 200,000 active; AID 1476, 2009; active = well fitted curve in the direction sought with a large enough effect; inconclusive = small, poorly fitted or top-dose-only effect, or another doubt; inactive = no such curve, though single readings can be large; an effect the other way counts as inactive or inconclusive;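 note: plate controls were enzyme without inhibitor for no effect and buffer without enzyme for full effect; nearly all actives have a fitted effect of over 40% in size; top concentration of the series not given in the record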
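Purified cruzain at 1.5 nM, pre-incubated 15 min with compound at room temperature in 100 mM sodium acetate pH 5.5, 5 mM DTT, 0.00005% Triton X-100. Reaction started with 2 uM Z-FR-AMC; AMC fluorescence increase over 60 s gives rate.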
NS1 function inh – qHTS Assay for Inhibitors of Influenza NS1 Protein Function | S. cerevisiae slowed by influenza A NS1, growth recovery by OD600 | AID 2326, 2010 | Potency, µM (highest dose often 46.1 µM), without a hit: at the top dose activity, positive = more growth | 0.4% of 270,000 active; note: actives are rising curves; nearly all actives have a fitted effect of over 50% in size
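Compounds were scored for reversing the slow growth caused by influenza A NS1 in S. cerevisiae, measured by optical density at 600 nm. Assay medium contained 2% galactose at pH 6.0; NS1-free yeast of the same strain were the positive control.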
2A StopGo – High Throughput Screening for Foot and Mouth Disease Virus Antivirals | human cells with a luciferase reporter of 2A StopGo recoding; control for the full effect not named in the record | Potency, µM (series often up to 57.9 µM), for inactives: at the highest dose signal change, negative = less light | 1.2% of 410,000 active | AID 1159524, 2015; active = well fitted falling curve with a large enough effect; inconclusive = small, poorly fitted or top-dose-only effect; inactive = no such curve, though single readings can be large or run the other way; tested in HEK293T cells; note: % is set by controls: 0 for no effect and ±100 for the full control effect; nearly all actives have a fitted effect of over 45% in size; luciferase light after 4 h
MARV entry inh – qHTS for inhibitors of binding or entry into cells for Marburg Virus; Marburg virus pseudotyped entry inhibition, cell reporter; control for the full effect not named in the record; about a third of the inactives were read at about 46 µM; Potency, µM (highest dose often 37.8 µM), without a hit: at the highest dose activity change, negative = inhibition, actives largely listed as inhibitors; 1.8% of 300,000 active; AID 540276, 2011; active = well fitted inhibition curve with a large enough effect; inconclusive = small, poorly fitted or top-dose-only effect, or effect the other way; inactive = flat fitted curve, though single readings scatter; tested in HEK293 cells; about a fifth of its hits are not listed in these tables; note: % is set by controls: 0 for no effect and ±100 for the full control effect; luciferase read-out
SARS PLpro yeast – qHTS of Yeast-based Assay for SARS-CoV PLP; S. cerevisiae expressing SARS-CoV PLpro, growth rescue; control for the full effect not named in the record; Potency, µM (doses to about 32.9 µM), without a hit: at the top dose activity, positive = growth rescue; 0.19% of 330,000 active; note: 0% is about no effect; nearly all actives have a fitted effect of over 55% in size; growth read by luminescence after 48 h
Starred values were filed as active, the others as inactive; ? = inconclusive; · = no result given; & = joins results of further samples; [ ] = dose if it differs, or a comment. Unless noted, calls come from the whole dose curve; as a rule, active means well fitted rising curve with a large enough effect; inconclusive means small, poorly fitted or top-dose-only effect; inactive means no such curve, though single readings can be large or run the other way. Potency is the fitted concentration of half-maximal effect.

SMILES | Cruzain inh Det | RE007 growth inh | Lassa entry inh | Cruzain inh noDet | NS1 function inh | 2A StopGo | MARV entry inh | SARS PLpro yeast
CCOC(=O)C1(O)CC(C)=NN1C(=O)c1cccc(Br)c1 (stereo not drawn) | · | -3% | ? | · | · | -15% | -1%[14.2 µM] | 4%
Clc1ccccc1CSc1nnc(Cn2cnc3ccccc32)n1-c1ccccc1 | -2.0% | 23% | -27% | -14% | 6% | -18% | ? | 0%
CC(C)c1ccc2[nH]c(O)c(N=NC(=O)c3cccc(S(=O)(=O)Nc4cccc(Cl)c4)c3)c2c1 | · | 13% | -4% | · | -1% | 6% | -20%[46.1 µM] | 1%
CN(Cc1cccc(Cl)c1Cl)C(=O)c1ccccc1SCC(=O)N1CCCC1 | · | -15% | -23% | · | · | 2% | ? | ·
CCOc1ccc(CCNC(=O)Cn2ncn3c(cc4ccccc43)c2=O)cc1OCC | -2.3% | · | · | -4% | · | -6% | 17%[46.1 µM] | ·
COc1ccccc1CN1C(=O)C(=O)N(Cc2cccc(C)c2)C1=O | · | -6% | -3%[46.1 µM] | · | 10% | 8% | ? | -1%
Nc1nc(CN2CCN(Cc3ccccc3)CC2)nc(N2CCCc3ccccc32)n1 | · | -6% | · | · | 5% | -11% | · | -3%
O=C(COc1ccccc1Cl)Nc1cc(-c2ccccc2F)nn1-c1ccccc1 | 3.8% | · | 6%[46.1 µM] | 3% | · | 0% | · | ·
Cc1cc(=O)oc2cc(OCC(=O)NC3CCCCC3)c(Cl)cc12 | · | 0% | 15%[46.1 µM] | · | · | 11% | -3%[46.1 µM] | 1%
CC1CCN(c2ncnc3c2nnn3C)CC1 | -1.8% | · | 18%[46.1 µM] | 23% | · | -13% | · | ·
CC(C)(C)n1ncc2c(=O)n(CC(=O)NCc3ccccc3Cl)cnc21 | -9.3% | 8% | ? | -7% | -3% | -4% | ? | 0%
COc1cc(/C=N/NC(=O)c2ccncc2)ccc1OC(=O)c1cccc(F)c1 | · | 5% | -20% | · | 8% | -9% | 1% | 3%
Cc1cc(=O)[nH]c(SCC(=O)Nc2ccccc2C#N)c1C#N | -4.3% | 6% | 8% | -3% | -3% | 29% | 9% | 18%
CC1(C)CC(=O)c2sc(N3CCCCC3)nc2C1 | -6.4% | -15% | ? | -14% | 5% | 23% | 27% | -1%
CC1=C(C(=O)Nc2ccccc2)C(c2ccccc2)n2nc(-c3ccco3)nc2N1 (stereo not drawn) | -3.0% | · | -20%[46.1 µM] | 24% | · | -27% | -22%[46.1 µM] | ·
COc1ccc(N(CC(=O)Nc2cc(C)on2)S(=O)(=O)c2ccc(Cl)cc2)cc1 | -0.3% | -8% | -16% | 6% | 16% | -8% | 0%[46.1 µM] | 0%
Fc1ccc(Oc2cnns2)cc1 | · | 11% | -2%[46.1 µM] | · | · | 22% | 17%[46.1 µM] | 1%
COc1ccc(CNC(=O)C2CCN(C(=O)N3CC(C)Oc4ccc(C)cc43)CC2)cc1 (stereo not drawn) | -0.2% | · | -2%[46.1 µM] | 7% | · | -18% | · | ·
CCOC(=O)c1ccc(NC(=O)CSc2nnc(NC(=O)c3ccc(S(=O)(=O)N4CCOCC4)cc3)s2)cc1 | 1.0% | -6% | 26% | 0% | 1% | 20% | 16% | -2%
Cc1cc(NC(=O)c2ccc(Cn3cc([N+](=O)[O-])cn3)o2)no1 | · | 0% | · | · | -5% | -5% | · | -1%
COc1ccc(S(=O)(=O)NCc2cccn2Cc2cccc(C)c2)cc1Cl | -7.6% | · | -2%[46.1 µM] | 6% | · | 0% | · | ·
O=S(=O)(N1CCOCC1)N1CCOCC1 | · | 9% | -4%[46.1 µM] | · | 2% | -7% | 25%[46.1 µM] | -1%
CCc1nonc1NC(=O)c1oc2cc(C)c(C)cc2c1C | 0.7% | -3% | ? | 0% | 4% | 50%&16%[activator] | ? | ?
CN(C)CCCNC(=O)C(=O)NCC1CCCO1 (stereo not drawn) | · | 5% | 21% | · | · | -2% | 24% | 1%
CC1CCN(C(=O)CSc2nc3c(c(=O)n2C)SC(C)C3)CC1 (stereo not drawn) | · | 6% | -5% | · | -8% | -18% | 0% | -5%
COc1ccc(C(c2c(NC(=O)c3ccco3)sc(C)c2C)N2CCOCC2)cc1 (stereo not drawn) | · | 17% | ? | · | · | -1% | -16% | -3%
Cc1ccc2nc(/C(C#N)=C\c3ccc(N4CCOCC4)o3)[nH]c2c1 | -15% | -6% | -29% | -10% | ? | 0% | ? | 3%
O=C(NCc1ccco1)c1ccc(Cl)c(S(=O)(=O)N2CCOCC2)c1 | 0.9% | 8% | 18% | -20% | 1% | 19% | 17% | -4%
CCN(CC)C(=O)Cn1c(=O)n(Cc2ccc(C(=O)NCCCOC)cc2)c(=O)c2ccccc21 | 0.0% | · | 15%[46.1 µM] | -6% | · | -2% | 14%[46.1 µM] | ·
CC(C)(C)NC(=O)C(c1ccc(O)cc1)N(C(=O)CCC(=O)Nc1ccccn1)c1ccc(F)cc1 (stereo not drawn) | · | -17% | · | · | -9% | -12% | ? | -5%
CCCCOc1cc(=O)[nH]c(=O)[nH]1 | 0.6% | -1% | -13% | ? | 0% | -7% | 5% | 5%
COc1ccc2[nH]c3c(c2c1)CCN1C(=O)C(CC(=O)NCC24CC5CC(CC(C5)C2)C4)C[C@H](C(=O)N(C(C)C)C(C)C)[C@@]31C (stereo partly drawn) | · | 4% | · | · | · | ? | 1% | -13%
C#CCN1C(=O)C(O)(CC(=O)c2ccc(OC)c(OC)c2)c2cc(Br)ccc21 (stereo not drawn) | -9.7% | · | -16%[46.1 µM] | -9% | · | 3% | -10%[46.1 µM] | ·
O=C(O)/C=C/c1ccc(S(=O)(=O)Nc2ccccc2C(=O)Nc2ccc(F)cc2)cc1 | · | 1% | -10%[46.1 µM] | · | 16% | 10% | 3%[46.1 µM] | 3%
CCCCn1c(SCC(=O)NCc2ccco2)nc2c(sc3ccccc32)c1=O | -1.8% | 4% | -6% | 10µM* | 8% | -9% | 1% | 16%
CCOC(=O)c1[nH]c2ccc(C)cc2c1NC(=O)CN1CCCCC1 | -6.5% | 5% | -11% | -1% | -3% | -26% | -13% | 0%
COc1cccc(OC)c1OCC(C)CNCC1CCCO1 (stereo not drawn) | -1.1% | -14% | 6% | -6% | -3% | · | -13% | 2%
COc1cc(SC)ccc1C(=O)Nc1ncc(Cl)cc1Cl | · | 11% | ? | · | · | 37%[activator] | -2%[46.1 µM] | 0%
CC(=O)Nc1ccc(S(=O)(=O)N(C)CC(=O)Nc2nc3ccccc3[nH]2)cc1 | · | -12% | -7% | · | · | 3% | 0%[46.1 µM] | 2%
CC1CCN(C(=O)c2cc(-c3ccccc3O)on2)CC1 | 0.3% | 2% | · | 5% | -110% | 23% | · | -4%
CCC(C)NC(=O)c1c(-c2ccccc2)c(-c2ccccc2)nn(C)c1=O (stereo not drawn) | -1.7% | · | -19%[46.1 µM] | -8% | · | -14% | -9%[46.1 µM] | ·
c1ccc(CSc2ccc(-c3cccs3)nn2)cc1 | -1.8% | 1% | ? | -3% | -1% | 16% | ? | 1%
Cc1ccc(Sc2ccc(/C=C3/C(=O)NN(c4ccccc4)C3=O)o2)cc1 | · | 0% | · | · | -38% | ? | 6% | 0%
O=C(NCCc1ccc(Cl)cc1)c1cc2ccccn2n1 | · | 6% | ? | · | -43% | -2% | 16% | -2%
CCCCCc1cc(=O)oc2c(C(CCN(CC)CC)c3ccc(OC)cc3)c(OC)cc(OC)c12 (stereo not drawn) | · | 7% | · | · | 2% | -5% | · | 0%
Cc1cc(=O)n2c3ccccc3n(CC(O)CN3CCCCC3)c2c1C#N (stereo not drawn) | -0.3% | -15% | 8% | -2% | 13% | · | ? | -4%
C=CCNC(=S)NNC(=O)c1cc(C)nc2ccccc12 | 0.3% | 20% | 5% | 9% | 6% | -19% | 20% | 10%
CC(=O)/C(=N/Nc1ccccc1)Sc1nnc(C(O)c2ccccc2)n1-c1ccccc1 (stereo not drawn) | 4.0% | 3% | -4% | -7% | 16% | 52%[activator] | -34% | -19%
CC1CC(C)CN(C(=O)CCc2ccccc2)C1 (stereo not drawn) | · | -10% | -9% | · | 1% | 25% | 0%[46.1 µM] | 1%
O=C(NC1CCCC1)C(c1ccsc1)N(C(=O)Cc1cccs1)c1cccc(F)c1 (stereo not drawn) | 5.3% | -1% | 22% | ? | 12% | 67%[activator] | 5% | 4%
Fc1ccc(-c2csc3ncnc(Nc4ccc(N5CCOCC5)cc4)c23)cc1 | -4.0% | -5% | -17% | 8% | -23% | -27% | ? | -1%
COc1ccc(OC)c(NC(=O)/C=C/c2ccc(S(=O)(=O)N3CCOCC3)cc2)c1 | · | 0% | -10% | · | · | -11% | 2% | 0%
Cc1nnsc1-c1nnc(SCC(=O)c2ccccc2)n1C1CC1 | · | 0% | · | · | 6% | -2% | · | -1%
Cc1cccc(-n2nc([N+](=O)[O-])c(N3CCN(C(=O)c4ccco4)CC3)[n+]2[O-])c1 | · | 1% | -4%[46.1 µM] | · | · | 0% | -6%[46.1 µM] | 8%
CC(=O)Oc1ccc(C2OC(=O)c3ccccc3N2C(C)=O)cc1 (stereo not drawn) | 0.0% | 0% | -3% | -6% | -9% | -17% | 0% | 5%
COc1ccc(N2CCN(C3CC(=O)N(Cc4ccc(N5CCCC5=O)cc4)C3=O)CC2)cc1 (stereo not drawn) | 0.8% | -21% | ? | 22% | -8% | ? | -11% | 7%
